Beta apoptosis: blocks beta cell apoptosis; INS-1E cytokine-induced death, ATP luminescence, 48 h; percent of positive-control rescue, neutral wells zero; protection from apoptosis, % (concentration not given with the values); hit rate 0.8% among 300,000;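 active = all replicates at 75% or more, or half of them and the mean; inconclusive = half reach 75% but not the mean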;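 note: 0% = cytokine-treated negative control wells and 100% = positive control rescue; higher means more ATP so stronger rescue from cytokine killing; wells of about 40 µL received 100 nL stock; the first replicate is given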
Ecoli rRNA inh: inhibitors of bacterial rRNA selective over humanized ribosomes; E. coli WT GFP vs humanized-ribosome RFP mutants, fluorescence, 24 h; hits give low values; DMSO median 0, no signal -100; GFP signal change (wild-type ribosome), % (concentration not given with the values); hit rate 1.6% among 350,000;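 active = significant combined selectivity score with lowered wild-type GFP, culture density cut under 30%, mutant RFP and density less affected; inactive = any of these conditions unmet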; note: one replicate is shown; some compounds called inactive have numbers as strong as hits
UCH37 DUB inh: inhibitors of human deubiquitinating enzyme UCH37; inhibition, % (test concentration not listed); purified proteasome/UCH37, Ub-AMC cleavage fluorescence; AID 588478; Q9Y5K5; hit rate 0.33% among 330,000;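 active = mean of two replicates above 20%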;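 note: 0% = compound-free wells with enzyme and 100% = wells lacking proteasome; stock transfer was 100 nL into about 20 µL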
Target sequence (Q9Y5K5 whole entry, looked up): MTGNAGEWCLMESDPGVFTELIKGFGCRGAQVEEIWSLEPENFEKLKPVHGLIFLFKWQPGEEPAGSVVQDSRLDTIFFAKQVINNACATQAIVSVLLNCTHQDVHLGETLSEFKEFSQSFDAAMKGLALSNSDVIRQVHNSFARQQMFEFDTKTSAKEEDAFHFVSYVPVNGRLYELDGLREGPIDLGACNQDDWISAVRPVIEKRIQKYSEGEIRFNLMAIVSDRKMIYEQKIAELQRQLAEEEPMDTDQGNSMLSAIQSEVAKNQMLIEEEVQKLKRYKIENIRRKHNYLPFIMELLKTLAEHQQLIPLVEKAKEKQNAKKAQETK
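Test system – human UCH37 enzyme supplied as purified proteasome complex · Incubation – 30 min preincubation with enzyme, 25 min cleavage at room temperature · Detection – AMC fluorescence from Ub-AMC cleavage, excitation 355 nm, emission 460 nm · Benchmarks – no-proteasome wells (full inhibition) and compound-free wells (no inhibition)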
Ecoli growth: blocks Escherichia coli growth; OD600, 23 h; hits give low values; OD600 absorbance (test concentration not listed); hit rate 0.21% among 330,000; AID 1053175;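 active = OD600 absorbance below the run mean of sample wells minus 3.6 SD, in any replicate, cut at about 0.56 in these data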;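 note: stock transfer was 300 nL into about 60 µL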
AF4-AF9 inh: blocks AF4 peptide binding to human AF9; hit rate 0.47% among 350,000; inhibition, % at 10 µM; AlphaScreen, biotin-AF4 peptide binding to FLAG-AF9;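 active = every replicate reaching a set inhibition limit, whatever the replicate mean, cut at about 25% in these data; inconclusive = mean inhibition reaches that limit but some replicates miss it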;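 note: 0% = plate neutral control median and 100% = total signal loss; the record names both 10 and 1 µM as test concentration; the first replicate is given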
Target sequence (P42568 whole entry, looked up): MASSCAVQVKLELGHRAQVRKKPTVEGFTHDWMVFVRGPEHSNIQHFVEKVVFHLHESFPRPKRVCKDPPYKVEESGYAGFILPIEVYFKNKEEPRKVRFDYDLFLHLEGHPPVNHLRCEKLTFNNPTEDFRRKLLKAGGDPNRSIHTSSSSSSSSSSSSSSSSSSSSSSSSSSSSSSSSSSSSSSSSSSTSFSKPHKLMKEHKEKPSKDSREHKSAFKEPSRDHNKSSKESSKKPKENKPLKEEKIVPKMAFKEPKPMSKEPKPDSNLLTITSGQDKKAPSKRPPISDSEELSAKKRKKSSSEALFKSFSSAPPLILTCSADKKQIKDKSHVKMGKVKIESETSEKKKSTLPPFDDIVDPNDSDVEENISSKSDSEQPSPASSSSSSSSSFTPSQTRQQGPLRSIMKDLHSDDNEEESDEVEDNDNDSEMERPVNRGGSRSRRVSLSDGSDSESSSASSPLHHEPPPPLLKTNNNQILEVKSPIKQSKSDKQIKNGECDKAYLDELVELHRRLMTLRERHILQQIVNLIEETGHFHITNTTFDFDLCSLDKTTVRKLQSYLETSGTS
FGF22 binding: shifts melting point of recombinant human FGF22. recombinant FGF22 thermal shift, SYPRO orange fluorescence; percent of sucrose octasulfate shift, DMSO zero. Q9HCT0. AID 651658. hit rate 1.5% among 340,000. calls only at 9.99 µM;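 active = melting point raised past a set limit in the mean and every replicate; inconclusive = no clear call; three in four hits are not shown here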
Target sequence (Q9HCT0 whole entry, looked up): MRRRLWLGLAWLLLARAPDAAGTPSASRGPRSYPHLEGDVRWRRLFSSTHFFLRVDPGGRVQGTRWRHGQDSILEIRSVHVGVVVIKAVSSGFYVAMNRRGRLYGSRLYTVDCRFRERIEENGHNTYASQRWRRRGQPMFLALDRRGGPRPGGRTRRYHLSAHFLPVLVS
T cruzi inh: T. cruzi replication inhibition | T. cruzi beta-gal in NIH3T3, luminescence, 90 h | inhibition, % (concentration not given with the values) | hit rate 1.4% among 300,000;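 active = mean inhibition across valid replicates above about 55%, limit read from the data; inconclusive = mean below that limit but half or more replicates reach it; inactive = mean below it, under half of replicates reach it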;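 note: signal also drops with host cell toxicity which is not excluded here; 0% = plate median of DMSO wells and 100% = zero luminescence signal; higher percent means less beta-gal luminescence so fewer parasites; stock transfer was 50 nL into about 50 µL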
A1 inh: inhibitors of the anti-apoptotic protein A1, read as caspase activation | MEF A1-2A-BIM cells, Caspase-Glo 3/7 luminescence, 3 h; percent of clofoctol response, vehicle zero | caspase activation, % (no concentration beside the values) | hit rate 0.066% among 330,000 | AID 2462;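 active = over half of replicate activation scores above 10%, or exactly half above 10 with the replicate mean above 10; inconclusive = replicate mean below 10 yet half the replicates above 10; inactive = over half of replicates below 10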;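 note: wells of about 30 µL received 50 nL stock; many hits fall short of the cut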
Ecoli rRNA inh OD600: further read-out of Ecoli rRNA inh, marked with its call; OD600 change, %; measured here: OD600 growth;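 optical density of the mix in the first replicate; 0 = DMSO median and -100 = no signal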
Ecoli rRNA inh RFP: further read-out of Ecoli rRNA inh, marked with its call; RFP signal change, %; measured here: RFP humanized mutant strains;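 first replicate; 0 = DMSO median and -100 = no signal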
The depositor's hits bear a star; i = inactive; ? = inconclusive; / = not tested or not shown; & = joins results of further samples.

Codes: A = Beta apoptosis; B = Ecoli rRNA inh; C = Ecoli rRNA inh OD600; D = Ecoli rRNA inh RFP; E = UCH37 DUB inh; F = Ecoli growth; G = AF4-AF9 inh; H = FGF22 binding; I = T cruzi inh; J = A1 inh
SMILES: Cc1cc(=O)[nH]c(SCC(=O)N2CCC(Cc3ccccc3)CC2)n1
  A: 6	B: -4	C: -6	D: -0.6	E: 3.1	F: 0.69	G: 0.0	H: i	I: -4	J: -0.8
SMILES: CC(C)CCCC(C)CCOC(=O)CN1CCCC1 (centres undefined)
  A: 0	B: 14	C: 2	D: 1.4	E: 2.9	F: 0.65	G: -0.6	H: i	I: -7	J: 1.3
SMILES: Cc1cccc(NC(=O)C(=O)NCCc2c[nH]c3ccccc23)c1C
  A: -2	B: -24	C: -16	D: 12	E: 4.8	F: 0.69	G: -8.1	H: i	I: 2	J: 0.2
SMILES: Cc1nnc(SC(C)C(=O)Nc2ccc(S(=O)(=O)N3CCCCCC3)cc2)s1 (centres undefined)
  A: 5	B: /	C: /	D: /	E: 2.6	F: 0.7	G: /	H: /	I: 31	J: 0.6
SMILES: CCCCN(C)C(=O)C1CCC(CNS(=O)(=O)c2ccc3c(c2)CC(C)N3C(C)=O)CC1 (centres undefined)
  A: 1	B: -2	C: -7	D: -1.6	E: 1.7	F: 0.67	G: -0.5	H: i	I: 2	J: 1.5
SMILES: C/C(Cn1cnc([N+](=O)[O-])n1)=N\NC(=O)c1ccc(O)cc1O
  A: /	B: 12	C: 25	D: -1.3	E: /	F: /	G: -0.8	H: i	I: 55*	J: -1.0
SMILES: COc1ccc(O)c(C2=Nc3ccccc3N=C(c3cccs3)C2)c1
  A: 10	B: /	C: /	D: /	E: 1.2	F: 0.71	G: /	H: /	I: 6	J: 0.1
SMILES: COc1ccc(CNC(=O)COc2ccc([N+](=O)[O-])cc2)cc1
  A: 3	B: /	C: /	D: /	E: 4.1	F: 0.7	G: /	H: /	I: -3	J: -0.1
SMILES: COc1ccc(Cc2nnc(SCC(=O)c3ccc(OC)cc3)o2)cc1
  A: -3	B: /	C: /	D: /	E: -0.5	F: 0.7	G: /	H: /	I: -18	J: -0.6
SMILES: COC(=O)COc1ccc2oc(=O)cc(-c3cc4ccccc4o3)c2c1
  A: /	B: 12	C: 6	D: -2.2	E: -1.8	F: 0.68	G: 1.1	H: i	I: -10	J: 0.4
SMILES: COc1cccc(C=NN2CCCCCC2)c1OC
  A: /	B: 4	C: -3	D: 1.1	E: 3.4	F: 0.72	G: 9.7	H: i	I: /	J: /
SMILES: CCC(=O)Nc1ccc(SC#N)cc1C
  A: -26	B: 4	C: 10	D: -2.2	E: 10.0	F: 0.69	G: -10	H: i	I: -5	J: 0.4
SMILES: Cc1cc(C(=O)O)cc(S(=O)(=O)Nc2c(C)nn(C)c2C)c1C
  A: 0	B: 19	C: 4	D: 5.2	E: 4.7	F: 0.71	G: -3.5	H: i	I: /	J: 0.5
SMILES: CC(=O)Nc1ncc(Cc2ccc(Cl)cc2Cl)s1
  A: -3	B: -1	C: 4	D: 1.7	E: 3.7	F: 0.7	G: -0.3	H: i	I: -2	J: -0.1
SMILES: COc1ccc([C@H]2CC(=O)C=C(c3ccc(-c4ccccc4)c(F)c3)C2)cc1
  A: -3	B: 3	C: 18	D: 0.1	E: 3.9	F: 0.74	G: -1.1	H: i	I: /	J: 0.2
SMILES: Nn1c(COc2ccccc2F)nnc1SCC(=O)NC1CC1
  A: -16	B: 0	C: 1	D: -0.1	E: 4.7	F: 0.7	G: -6.2	H: i	I: -7	J: 0.2
SMILES: CC1CN(Cc2ccc(C#N)cc2Cl)CC(C)O1 (centres undefined)
  A: -2	B: /	C: /	D: /	E: 0.0	F: 0.72	G: /	H: /	I: 4	J: 0.2
SMILES: N#Cc1ccc(OCC(O)CS(=O)(=O)c2ccccc2)cc1 (centres undefined)
  A: -6	B: 22	C: 16	D: 4.7	E: -0.9	F: 0.62	G: -2.7	H: i	I: -11	J: 0.2
SMILES: C=CCn1c(C)csc1=Nc1ccccc1C
  A: 1	B: -18	C: -17	D: -6.6	E: 3.4	F: 0.66	G: 27*	H: i	I: -1	J: 0.8
SMILES: Cc1cccc(N2CCN(C(=O)C3CCN(S(=O)(=O)c4cnc[nH]4)CC3)CC2)c1C
  A: 0	B: /	C: /	D: /	E: 1.9	F: 0.78	G: /	H: /	I: 0	J: 0.4
SMILES: Cc1nc(-c2ccc(Cl)cc2)sc1C1(C)CC(c2ccc(C#N)cc2)=NO1 (centres undefined)
  A: 9	B: /	C: /	D: /	E: 5.8	F: 0.7	G: /	H: /	I: 3	J: -0.6
SMILES: Cc1onc(-c2ccccc2)c1C(=O)N=C(N)c1ccc(C(F)(F)F)cc1
  A: -6	B: /	C: /	D: /	E: 2.4	F: 0.68	G: 1.3	H: i	I: 8	J: -0.6
SMILES: Cc1cc2cc(C)c(NCCNC(=O)c3ccccc3Cl)nc2cc1C
  A: 8	B: -15	C: -15	D: 1.2	E: -11	F: 0.64	G: -5.1	H: i	I: 21	J: 0.3
SMILES: CCS(=O)(=O)N1CCN(Cc2ccccc2OC)CC1
  A: 1	B: 9	C: 15	D: -0.9	E: 1.0	F: 0.62	G: /	H: /	I: -19	J: 0.6
SMILES: Cc1nnc(SCC(=O)NC(C)(C)C)n1NCc1cccc(Br)c1
  A: 0	B: -18	C: -13	D: -4.2	E: -0.3	F: 0.7	G: -0.5	H: i	I: 9	J: -0.2
SMILES: COc1ccc(C(=O)COC(=O)COc2ccc(C)c(C)c2)cc1
  A: -3	B: 1	C: -3	D: 0.9	E: 4.2	F: 0.69	G: -0.6	H: i	I: 4	J: -0.2
SMILES: CC1=NN(C(N)=S)C(=O)C1N=Nc1ccccc1O (centres undefined)
  A: -1	B: -26	C: -35	D: 7.8	E: 1.4	F: 0.65	G: 0.2	H: i	I: 3	J: -2.1
SMILES: CN(C)C(=O)c1ccc(NC(=O)c2sccc2-c2ccccc2)cc1
  A: 0	B: 6	C: 10	D: 3.3	E: 1.8	F: 0.68	G: 9.2	H: i	I: -12	J: 1.1
SMILES: O=C(O)CCc1ccc(-c2ccc(Br)cc2)n1NC(=O)c1ccc([N+](=O)[O-])cc1
  A: -3	B: 5	C: 1	D: 1.5	E: 4.1	F: 0.66	G: -8.9	H: i	I: -8	J: -0.4
SMILES: CCOC(=O)c1nnn(CC(=O)NC(=O)Nc2ccccc2)c1C(=O)OCC
  A: -9	B: 10	C: 11	D: 5.0	E: 6.5	F: 0.69	G: 5.1	H: i	I: -9	J: -0.7
SMILES: CCn1c(=O)c([N+](=O)[O-])c(NCCc2ccccc2)c2ccccc21
  A: 16	B: /	C: /	D: /	E: 5.1	F: 0.69	G: /	H: /	I: 51	J: -0.5
SMILES: COc1ccc(NC(=O)c2cc3c(-c4ccc(OC)c(OC)c4)nn(C)c3s2)cc1OC
  A: 23	B: /	C: /	D: /	E: -1.1	F: 0.7	G: /	H: /	I: 32	J: ?
SMILES: CCOC(=O)CSc1nc(-c2ccccc2)nc2ccc(F)cc12
  A: -5	B: /	C: /	D: /	E: -6.6	F: 0.72	G: /	H: /	I: -17	J: 0.4
SMILES: CSCC(=O)N1CCC(n2nccc2NC(=O)c2ccc3c(c2)OCO3)CC1
  A: -2	B: 17	C: 21	D: 4.2	E: -0.2	F: 0.72	G: -0.2	H: i	I: -2	J: -0.1
SMILES: C=CCSc1nnc2c(n1)-c1cccc3cccc-2c13
  A: 0	B: -24	C: -40	D: -13	E: 1.2	F: 0.69	G: 7.3	H: i	I: 3	J: 0.7
SMILES: CCn1c(SC(=O)NC2CCCCC2)nnc1-c1cccs1
  A: -8	B: /	C: /	D: /	E: -5.4	F: 0.66	G: /	H: /	I: 1	J: 1.5
SMILES: CC(=O)CCc1c(C)c2cc(C)ccc2[nH]c1=O
  A: -5	B: /	C: /	D: /	E: -4.2	F: 0.76	G: /	H: /	I: 4	J: 1.1
SMILES: O=C(CCSCCC(=O)NCc1cccs1)NCc1cccs1
  A: -8	B: /	C: /	D: /	E: -2.6	F: 0.77	G: /	H: /	I: -26	J: -0.6
SMILES: Cc1noc(C)c1NC(=O)Nc1cccc2c1O[C@H](CN(C)S(=O)(=O)c1ccccc1)[C@@H](C)CN([C@H](C)CO)C2=O
  A: /	B: 3&2	C: 3&-1	D: 1.1&2.2	E: 1.5	F: 0.72	G: -3.5&-4.3	H: i	I: /	J: /
SMILES: CCC(C)[C@H]1CNCCN1CCCc1cc(OC)c(OC)c(OC)c1 (some centres undefined)
  A: 4	B: 9	C: 11	D: 2.5	E: -2.6	F: /	G: -5.4	H: i	I: -4	J: -0.8
SMILES: CC1C(=O)Nc2ccc(S(=O)(=O)NCc3ccc(Cl)cc3)cc2NC1=O (centres undefined)
  A: -4	B: -7	C: 3	D: -1.9	E: 3.2	F: 0.76	G: -8.9	H: i	I: -7	J: /
SMILES: CC1(C)ON(C2CCCCC2)[C@H]2c3nc4ccccc4n3C[C@H]21
  A: -1	B: -2	C: 0	D: -5.0	E: 1.9	F: /	G: -0.7	H: i	I: -3	J: -0.3
SMILES: CCOC(=O)CC(NC(C)=O)c1ccc([N+](=O)[O-])cc1 (centres undefined)
  A: -5	B: /	C: /	D: /	E: 1.5	F: 0.68	G: /	H: /	I: -13	J: -0.3
SMILES: CN(CC(=O)Nc1ccc(F)c(F)c1F)C(=O)CCCc1nc2ccccc2c(=O)[nH]1
  A: -4	B: /	C: /	D: /	E: 1.9	F: 0.66	G: 0.6	H: i	I: /	J: -0.1

5 entries out of the list, arranged by SMILES length, lowest first:
Codes: A = Beta apoptosis; B = Ecoli rRNA inh; C = Ecoli rRNA inh OD600; D = Ecoli rRNA inh RFP; E = UCH37 DUB inh; F = Ecoli growth; G = AF4-AF9 inh; H = FGF22 binding; I = T cruzi inh; J = A1 inh
SMILES: CC(=O)CCc1c(C)c2cc(C)ccc2[nH]c1=O
  A: -5	B: /	C: /	D: /	E: -4.2	F: 0.76	G: /	H: /	I: 4	J: 1.1
SMILES: CCC(C)[C@H]1CNCCN1CCCc1cc(OC)c(OC)c(OC)c1 (some centres undefined)
  A: 4	B: 9	C: 11	D: 2.5	E: -2.6	F: /	G: -5.4	H: i	I: -4	J: -0.8
SMILES: CC1(C)ON(C2CCCCC2)[C@H]2c3nc4ccccc4n3C[C@H]21
  A: -1	B: -2	C: 0	D: -5.0	E: 1.9	F: /	G: -0.7	H: i	I: -3	J: -0.3
SMILES: CSCC(=O)N1CCC(n2nccc2NC(=O)c2ccc3c(c2)OCO3)CC1
  A: -2	B: 17	C: 21	D: 4.2	E: -0.2	F: 0.72	G: -0.2	H: i	I: -2	J: -0.1
SMILES: CCn1c(=O)c([N+](=O)[O-])c(NCCc2ccccc2)c2ccccc21
  A: 16	B: /	C: /	D: /	E: 5.1	F: 0.69	G: /	H: /	I: 51	J: -0.5

This is a subset; count on the stated rates, not on these rows.
